# PABP polyA inh: PABP poly(A) RNA binding inhibitors, primary screen, biochemical, fluorescence polarization, uHTS; Polyadenylate-binding protein 1 (Homo sapiens), P11940; inhibition, % at 35 µM; actives 1% (n = 290,000); AID 2014, 2009;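 active = 50% or more with normal probe brightness, or confirmed in later tests; inconclusive = above 50% with abnormal brightness, or retests that disagree; inactive = below 50% or failed in later tests; about a fifth of its hits are not listed in these tables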;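 note: calls also rest on retests at 20 µM and on dose response follow-up; controls were probe without protein and protein plus probe with vehicle; some compounds called inactive have numbers as strong as hits; many hits fall short of the cut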
# Env fusion inh: inhibitors of HIV-1 Env-driven cell-cell fusion, primary screen, HeLa-JRFL effector, CEM21 target cells, luciferase; inhibition, % at 12.3 µM; actives 1.1% (n = 360,000);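 active = mean replicate inhibition score of at least 50 and every replicate individually at or above 50; inconclusive = only one of the two criteria met; inactive = mean below 50 and not all replicates reaching 50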;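 note: 0% = plate neutral controls and 100% = maraviroc near 300 nM; one replicate is shown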
# MT1-MMP act inh: blockers of MT1-MMP proenzyme processing, primary screen, HT1080 RFP-PRO-GFP cells, GFP/RFP fluorescence | Matrix metalloproteinase-14 (Homo sapiens), P50281 | GFP/RFP ratio fluorescence, overnight; percent of plate control window, DMSO zero | GFP/RFP ratio change, % at 20 µM | actives 0.061% (n = 360,000);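 active = GFP/RFP ratio change of at least 30% with cell ATP level not reduced by more than half and red fluorescence within 50% of control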; note: strong numbers were not always called active
#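 Test system: HT1080 RFP-PRO-GFP cells; Benchmarks: DMSO and RFP-L50D-GFP cell wells; Timing: cells overnight before dosing, compound overnight, 37 °C, 5% CO2; Compound: one 20 µM compound dose with 1% DMSO; Read-out: GFP/RFP fluorescence ratio.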
# CSC inhib: cancer stem cell viability inhibitors, primary screen, luminescence; AID 2717, 2010; inhibition, % at 7.5 µM; cancer stem cell-like cells viability; actives 1.1% (n = 300,000);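 active = mean at 75% or more and at least half the replicates too; inconclusive = mean and replicates disagree; tested in HMLE shEcad cells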;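 note: 0% = median of negative and 100% = median of positive control wells; the first replicate is given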
# eIF4H FP inh: human eIF4H binding inhibitors, primary screen, translation initiation inhibitor project, biochemical, uHTS, fluorescence polarization | eIF4H fluorescence polarization binding assay | inhibition, % at 35 µM | actives 0.94% (n = 290,000);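 active = 50% or more with normal probe brightness, or confirmed in later tests; inconclusive = above 50% with abnormal brightness, or retests that disagree; inactive = below 50% or failed in later tests; about a fifth of its hits are not listed in these tables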;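 note: calls also rest on retests at 20 µM and on dose response follow-up; 0% = protein and probe with vehicle and 100% = probe without protein; strong numbers were not always called active; many hits fall short of the cut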
# Rce1 inhib: yeast Rce1p protease inhibitors, primary screen, biochemical, fluorescence, cell-free homogeneous; CAAX prenyl protease 2 (Saccharomyces cerevisiae (strain ATCC 204508 / S288c)), Q03530; AID 2563, 2010; calls only; actives 0.27% (n = 290,000); yeast membranes, quenched prenylated peptide cleavage fluorescence;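 active = fall in fluorescence gain of 50% or more versus controls, with final raw signal at or below 3038400; inconclusive = same 50% fall but final raw signal above 3038400; inactive = fall in fluorescence gain under 50%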;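 note: plate controls were neutral control wells for no effect and wells lacking membranes for full effect; tested at 10 µM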
# Target sequence (Q03530 whole entry, looked up): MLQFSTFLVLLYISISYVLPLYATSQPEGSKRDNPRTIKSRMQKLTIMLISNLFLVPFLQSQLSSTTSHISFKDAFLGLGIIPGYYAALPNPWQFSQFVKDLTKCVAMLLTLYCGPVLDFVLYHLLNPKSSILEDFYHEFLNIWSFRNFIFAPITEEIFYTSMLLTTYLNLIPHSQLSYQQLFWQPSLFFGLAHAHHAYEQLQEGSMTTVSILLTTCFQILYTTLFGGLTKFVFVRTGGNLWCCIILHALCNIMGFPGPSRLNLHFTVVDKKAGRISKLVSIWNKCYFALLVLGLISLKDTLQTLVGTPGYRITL
# Yeast UUG start: modulators of yeast start codon fidelity, primary screen, whole organism, S. cerevisiae, single point, plate reader; S. cerevisiae UUG-firefly luciferase reporter, luminescence/redox ratio; activity score, % at 18.7 µM; actives 0.13% (n = 350,000);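 active = replicate mean at a twofold rise or more, about +100% in these data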;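 note: firefly luciferase made from a UUG start codon reports start codon fidelity; reporter light over untreated wells divided by growth signal over untreated wells; some hits fall short of that in this replicate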
# MT1-MMP act inh RFP: second read-out of MT1-MMP act inh, no call of its own (marks repeat the call); RFP signal change, %; measured here: RFP expression control read;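 0 = vehicle wells; hits needed this value within 50% of zero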
# An asterisk follows results filed as active; i = inactive; ? = inconclusive; . = no result given.
SMILES,PABP polyA inh,Env fusion inh,MT1-MMP act inh,MT1-MMP act inh RFP,CSC inhib,eIF4H FP inh,Rce1 inhib,Yeast UUG start
CC1CCN(CCCNC(=O)c2ccc3c(Cl)c4c(nc3c2)CCCC4)CC1,-5,57*,2,-3,40,-9,i,.
Cc1ccc(N2CC(C(=O)Nc3nnc(SCC(=O)N4CCOCC4)s3)CC2=O)cc1 (stereo unspecified),8,-12,-2,2,-13,2,i,12
CC(C)COc1ccc(CNC(=S)NCc2ccccc2)cc1,-3,18,4,-2,8,6,i,-25
Cc1ccc(C)c(S(=O)(=O)N2CCN(C(=O)CCNC(=O)c3ccc(Br)cc3)CC2)c1,.,11,3,-5,.,.,i,-3
O=C(Nc1ccccc1C(=O)N/N=C/c1ccc(F)cc1)c1ccccc1Br,1,-9,6,2,-24,-4,i,-24
COc1cc(NC(=S)NC(C)(C)C)c(OC)cc1Cl,-11,12,0,-3,-4,0,.,.
Cc1ccc(S(=O)(=O)NC(=O)c2cc(C)n(-c3ccccc3)c2C)cc1,-12,6,-3,2,-5,-12,.,-11
CCN1C(=O)[C@H]2[C@H]3CN=C(SCC(=O)c4ccccc4)N3[C@@](CC)(C(=O)OC)[C@H]2C1=O,.,34,5,10,.,.,.,-11
CCOc1ccc2oc(C(=O)N(CC)CC(=O)Nc3ccc(NC(C)=O)cc3)c(C)c2c1,.,-13,-1,1,.,.,.,-8
CCCCOc1c(Br)cc(CNCCCN2CCOCC2)cc1OC,10,9,9,9,28,-10,i,-7
CCN(CC(=O)Nc1c(F)cccc1F)C(=O)c1cnccn1,.,-16,-2,7,-10,.,i,8
CCCCNCCOCCOc1ccc(C)cc1[N+](=O)[O-],-12,-14,0,3,1,0,i,-12
O=C(NC1CCCCC1)c1ccc(Br)o1,3,?,4,6,1,-3,i,-8
COc1cc(N/N=C/c2ccc(N(C)C)cc2)ncn1,-1,-86,2,3,4,0,i,-46
N#Cc1ccccc1N=Cc1ccc(Br)cc1,11,-3,2,4,-7,-8,i,-16
Nc1nnc(-c2ccc(Cl)cc2)o1,-12,-1,0,-1,-7,-6,i,-15
CCc1ccccc1OCC(=O)OCC(=O)N1CC(=O)Nc2ccccc21,3,1,5,3,-1,16,i,.
CCCCNC(=S)N/N=C/C1=CCC2CC1C2(C)C (stereo unspecified),-3,84*,-1,-9,8,-5,i,-20
COC(=O)Cc1[nH]n(-c2nc3ccccc3s2)c(=O)c1C(C)=Nc1ccc(Cl)cc1,11,-7,0,6,69,2,i,.
COc1ccc(NC(=O)CN(C)C(C)C(=O)NC(=O)NC2CCCCC2)cc1 (stereo unspecified),3,14,0,1,5,-9,.,0

# Part of the list above, as tab-separated lines.
mol	PABP polyA inh	Env fusion inh	MT1-MMP act inh	MT1-MMP act inh RFP	CSC inhib	eIF4H FP inh	Rce1 inhib	Yeast UUG start
CC(C)COc1ccc(CNC(=S)NCc2ccccc2)cc1	-3	18	4	-2	8	6	i	-25
Cc1ccc(C)c(S(=O)(=O)N2CCN(C(=O)CCNC(=O)c3ccc(Br)cc3)CC2)c1	.	11	3	-5	.	.	i	-3
O=C(Nc1ccccc1C(=O)N/N=C/c1ccc(F)cc1)c1ccccc1Br	1	-9	6	2	-24	-4	i	-24
COc1cc(NC(=S)NC(C)(C)C)c(OC)cc1Cl	-11	12	0	-3	-4	0	.	.

# Just MT1-MMP act inh, Env fusion inh and CSC inhib, for 2 of the compounds above:
molecule	MT1-MMP act inh	Env fusion inh	CSC inhib
CCOc1ccc2oc(C(=O)N(CC)CC(=O)Nc3ccc(NC(C)=O)cc3)c(C)c2c1	-1	-13	.
COc1ccc(NC(=O)CN(C)C(C)C(=O)NC(=O)NC2CCCCC2)cc1 (stereo unspecified)	0	14	5

# Further structures follow:
SMILES,PABP polyA inh,Env fusion inh,MT1-MMP act inh,MT1-MMP act inh RFP,CSC inhib,eIF4H FP inh,Rce1 inhib,Yeast UUG start
CCC(C)NC(=O)Cn1cccc1C(=O)c1ccccc1 (stereo unspecified),14,.,2,0,3,-2,i,-8
Cc1cccc2c3c([nH]c12)CCN(C)C3,-10,-15,1,-1,0,14,i,-5
COc1ccc(Cc2nc3ccc(C(=O)N4CCOCC4)cc3o2)cc1,-3,-59,0,-4,0,-8,i,9
O=C(Nc1nnc(-c2ccc3c(c2)CCCC3)o1)C1COc2ccccc2O1 (stereo unspecified),6,14,-1,3,31,13,i,-35
CCOC(=O)N1CCN(c2nc(-c3ccco3)cc(C(F)(F)F)n2)CC1,-3,-45,-5,-3,24,-7,i,-8
O=C1NC[C@@H](Cc2cccc3ccccc23)N(CCCCC2CCCCC2)C1=O,.,12,-2,3,88*,.,i,-10
CN(C)S(=O)(=O)c1ccc(C(=O)Nc2ccccc2OC(F)(F)C(F)F)cc1,-4,.,11,-3,3,2,i,-1
CC(C)(C)NC(=O)CSc1nnc(-c2ccccc2)c(-c2ccccc2)n1,-1,.,-4,-4,29,-8,i,6
CCCn1c(SCC(=O)c2ccc3c(c2)OCCO3)nc2c1c(=O)n(C)c(=O)n2C,9,13,5,2,.,-10,i,-19
COc1cc(CNC(C)c2ccccc2)cc(Br)c1OCc1ccc(F)cc1 (stereo unspecified),-2,51,-7,-7,56,-8,i,6
O=C(CSc1nnc2ccccn12)NNC(=O)c1ccc(Cl)cc1,24,11,1,1,-11,1,i,-18
Cc1ccc(NC(=O)CC(NCC2CCCO2)C(=O)O)cc1C (stereo unspecified),3,-1,4,2,-4,0,i,-18
N#Cc1ccc(C(=O)N2CCC3CC2c2cc(-c4ccc(F)cc4)ccc23)cc1 (stereo unspecified),.,6,2,-4,.,.,.,-5
CN(C)/C=N/c1ncc(C(=O)OC(C)(C)C)s1,12,-5,2,4,-4,2,i,.
O=C(O)c1ccccc1Nc1ccccc1,.,-14,3,3,-5,.,.,-10
CC1(C)OC(=O)N(c2ccccc2)C12C=Cc1cc(Br)ccc1O2 (stereo unspecified),-5,27,-11,-14,10,3,i,-5
Cc1cc2nncn2c2ccccc12,0,-355,6,1,-10,7,i,-14
CCN(CC)C(=O)Cn1c(=O)n(CCCCCC(=O)Nc2ccccc2)c(=O)c2sccc21,5,.,4,1,5,0,i,.
COC(=O)c1ccc(C2/C(=C(/O)c3ccc4c(c3)CC(C)O4)C(=O)C(=O)N2CCN2CCOCC2)cc1 (stereo unspecified),1,-8,2,2,-7,-16,i,-1
Cc1ccnc(NC(=O)CCC2COc3ccccc3O2)c1 (stereo unspecified),-3,.,0,1,4,-11,i,-16

# Arranged by the number under MT1-MMP act inh RFP (high to low): 3 of the compounds above.
SMILES | Env fusion inh | MT1-MMP act inh | MT1-MMP act inh RFP | Rce1 inhib | Yeast UUG start
CN(C)S(=O)(=O)c1ccc(C(=O)Nc2ccccc2OC(F)(F)C(F)F)cc1 | . | 11 | -3 | i | -1
N#Cc1ccc(C(=O)N2CCC3CC2c2cc(-c4ccc(F)cc4)ccc23)cc1 (stereo unspecified) | 6 | 2 | -4 | . | -5
COc1cc(CNC(C)c2ccccc2)cc(Br)c1OCc1ccc(F)cc1 (stereo unspecified) | 51 | -7 | -7 | i | 6

# (next part)
SMILES,PABP polyA inh,Env fusion inh,MT1-MMP act inh,MT1-MMP act inh RFP,CSC inhib,eIF4H FP inh,Rce1 inhib,Yeast UUG start
COc1ccccc1C(c1nnnn1CC1CCCO1)N1CCN(c2ccccc2)CC1 (stereo unspecified),23,5,-2,1,-7,9,i,-1
CN(C)c1nc(NCc2ccccc2)nc(N/N=C/c2cccc(Br)c2)n1,9,-1,2,-7,3,3,.,-15
COc1cc(NS(=O)(=O)c2ccc(NS(=O)(=O)c3ccc(NC(C)=O)cc3)cc2)nc(OC)n1,4,-2,0,2,.,-16,i,-4
COc1ccc(/C(CC2(O)C(=O)Nc3ccccc32)=N\O)cc1 (stereo unspecified),10,-1,1,6,-10,10,i,-4
CC12CN3CC(C)(CN(C1)C3c1ccc(Cl)cc1)C2 (stereo unspecified),2,2,1,1,-15,-5,i,.
COc1ccccc1NC(=O)CSc1nc(N)c(-c2ccccc2)c(=O)[nH]1,-12,8,1,1,12,-11,i,.
Cc1nc2cc(C(=O)NCc3cccnc3)ccc2n1-c1ccc(F)cc1F,-12,6,-1,2,.,-11,i,.
Nc1nc(N)nc(-c2cccc([N+](=O)[O-])c2)n1,.,-16,2,0,.,.,.,-23
COc1ccc(S(=O)(=O)N2CCCC(C(=O)N3CCOCC3)C2)cc1OC (stereo unspecified),1,-6,-1,-3,-7,-1,i,-4
O=C(c1ccc(S(=O)(=O)N2CCOCC2)cc1)N1CCCc2ccccc21,-8,4,3,1,-20,6,i,-10
COC(=O)CCNC(=O)c1ccc2nc(Cc3ccc(OC)c(OC)c3)oc2c1,1,-2,5,-5,-13,-3,i,-30
O=C(COC(=O)c1ccc(S(=O)(=O)N2CCCC2)cc1)NCc1ccco1,14,-6,7,3,-14,11,i,-10
C=CCNC(=O)C1CC(=O)N(c2ccc(Br)cc2)C1 (stereo unspecified),-5,.,-2,2,-17,0,i,-8
CC(=O)C(Sc1ccc2nnc(-c3cccnc3)n2n1)C(C)=O,-12,-11,-1,4,-6,1,i,-2
COc1ccccc1N(CC(=O)NC1CCCCC1)S(=O)(=O)c1cccs1,0,-9,4,1,-13,-7,i,.
Cn1c(COc2ccccc2)nnc1SCC(=O)c1cccc([N+](=O)[O-])c1,6,.,9,-1,-17,0,i,-12
CCCCCOC(=O)C1=C(C)Nc2nnnn2C1c1ccc(OC)c(OC)c1OC (stereo unspecified),8,.,-10,-4,-8,-8,i,6
CC(C)n1nnnc1SCC(=O)Nc1ccc2c(c1)OCO2,-1,-56,-3,-9,1,5,i,-14
Cc1ccc(-n2c([S-])c(C(=O)Nc3ccc(OC(F)F)cc3)[n+]3ccc(C(=O)NCCO)cc23)cc1C,4,9,-1,-3,2,-8,i,.
CC(C)c1ccc(CN2CCSCC2)cc1,9,3,2,2,12,10,i,-9

# Compounds shown so far with a nitro group on carbon (three):
SMILES,PABP polyA inh,Env fusion inh,MT1-MMP act inh,MT1-MMP act inh RFP,CSC inhib,eIF4H FP inh,Rce1 inhib,Yeast UUG start
CCCCNCCOCCOc1ccc(C)cc1[N+](=O)[O-],-12,-14,0,3,1,0,i,-12
Nc1nc(N)nc(-c2cccc([N+](=O)[O-])c2)n1,.,-16,2,0,.,.,.,-23
Cn1c(COc2ccccc2)nnc1SCC(=O)c1cccc([N+](=O)[O-])c1,6,.,9,-1,-17,0,i,-12

# Next results follow:
SMILES,PABP polyA inh,Env fusion inh,MT1-MMP act inh,MT1-MMP act inh RFP,CSC inhib,eIF4H FP inh,Rce1 inhib,Yeast UUG start
CC1(C(=O)Nc2ccc3c(c2)OCCO3)CCC(=O)N1C1CC1 (stereo unspecified),.,4,5,6,.,.,.,-6
O=c1[nH]c(S)c(/C=C2\C=Nc3ccccc32)s1,?,-12,-16,6,10,?,i,-15
CC(=O)N1CCC(N2CCN(Cc3ccc(C)cc3)C(CCO)C2)CC1 (stereo unspecified),-9,-4,5,4,-18,-7,i,.
Cc1cccc(NC(=O)CN2C(=O)N/C(=C/c3ccc(C)s3)C2=O)c1,-7,-21,-32,2,-8,?,i,.
O=C(CSc1nc(-c2ccccc2)c(-c2ccccc2)o1)Nc1nncs1,-2,.,-1,-8,-1,-12,i,-8
CCCn1nnnc1NCc1ccc(C(C)C)cc1,-1,1,1,3,1,6,i,-11
